Biofilm kill mix – clotrimazole potentiators killing C. albicans biofilm, primary screen, 4-compound mixtures; C. albicans biofilm persisters + clotrimazole, fluorescence viability; primary screen in compound mixtures of four per well; inhibition, % at 7.6 µM; 0.02% of 120,000 active; AID 1242, 2008;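 active = inhibition above 30.3% in the primary screen of four-compound pools, then above 30% when the compound was retested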;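 note: compounds exposed to preformed 24 h biofilms for 48 h; the number belongs to the whole pool; some results filed as inactive read as strong as hits; inactives centre near 12; 0% = biofilm with clotrimazole alone and 100% = kill control; retested singly at about 60 µM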
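Test system: C. albicans CAF4-2 wild-type biofilms; buffer or medium: RPMI/MOPS medium, pH 7.0; schedule: 24 h biofilm formation, then 48 h compound exposure, 37 °C; detection: Alamar Blue fluorescence; measure: percent inhibition of biofilm viability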
The depositor's hits bear a star. Not all compounds are listed. The share of hits here may be higher or lower than overall.

SMILES	Biofilm kill mix
Cc1sc(NC(=O)c2ccco2)c(C(c2ccc(F)cc2)N2CCN(C)CC2)c1C (stereo not drawn)	14
COc1cccc(NC(=O)C(Sc2nnc3ccccn23)c2ccccc2)c1 (stereo not drawn)	10
COCc1nnc(NC(=O)c2ccc(NC(C)=O)cc2)s1	11
COc1ccc(/C=N/NC(=O)C(=O)N2CCCC2)cc1	8
Cc1cccc2c1NC1(CCCC1)CC2C (stereo not drawn)	16
CN(C)c1ccc(C=NCCc2ccc(S(N)(=O)=O)cc2)cc1	-4
Fc1cc2[nH]cnc2cc1Cl	27
C/C(CC(=O)NC1CCCC1)=N\NC(=O)Cc1csc(N)n1	7
CCn1nc(C)c(/C=C/C(=O)Nc2ccc(C)cc2C)c1C	-3
COc1cc(-c2nc(-c3cccc(C)c3)no2)cc(OC)c1OC	1
COc1ccc(CNc2nc(-c3cccnc3)nn2C(C)=O)cc1	27
c1cncc(C(c2nnnn2C2CCCCC2)N2CCCCC2)c1 (stereo not drawn)	23
COc1ccc(CNC(=O)CCCCCNc2nc(=S)[nH]c3ccccc23)cc1	0
COc1ccc2c(c1)C(=O)[C@@H](O)[C@H](c1ccc(OC)c(Br)c1)O2	16
CCN(CC)S(=O)(=O)c1ccc(/C=C/C(=O)Nc2c(C)n(C)n(-c3ccccc3)c2=O)cc1	18
Cc1cc(N2C(=O)[C@@H]3[C@H](C2=O)[C@@H]2C[C@H]3C(Br)C2Br)no1 (stereo partly drawn)	15
NC(=O)C1(N2CCCCC2)CCN(C(=S)NC2CCCC2)CC1	12
O=C(c1ccc(-c2ccc(Cl)cc2Cl)o1)N1CCOCC1	12
CCCN1CNC(=S)N(c2cccc(C)c2)C1	16
N#C/C(=C\c1ccc(N2CCCCC2)o1)C(=O)Nc1cccc(Br)c1	12
COc1ccc(/C=N/NC(=O)CNC(=O)c2ccc(S(=O)(=O)N3CCOCC3)cc2)c(OC)c1	12
O=C(NN1CC(=O)N(c2cc(Cl)cc(Cl)c2)CC1=O)c1sccc1Cl	7
COc1ccc(NC(=O)c2ccccn2)cc1S(=O)(=O)N1CCOCC1	4
O=C1C2C3C=CC(C3)C2C(=O)N1Nc1ccccc1 (stereo not drawn)	16
Cc1c(C(=O)NCc2ccccn2)oc2ccc(S(=O)(=O)N3CCC4(CC3)OCCO4)cc12	22
(further entries)
SMILES	Biofilm kill mix
O=C1NCCCCC1NS(=O)(=O)c1ccc(F)c(F)c1 (stereo not drawn)	19
COc1ccccc1NC(=S)NNC(=O)c1ccc(Cl)cc1Cl	9
COc1ccc(S(=O)(=O)N2CCOCC2)cc1NS(=O)(=O)/C=C/c1ccccc1	8
CCOC(=O)c1ccc(N2C(=O)CC(SCC(=O)Nc3ccc(S(N)(=O)=O)cc3)C2=O)cc1 (stereo not drawn)	15
CC(C)C(NC(=O)C12CC3CC(CC(C3)C1)C2)C(=O)N/N=C/C1=C(N2CCOCC2)C(=C\c2cccc([N+](=O)[O-])c2)/CC1 (stereo not drawn)	18
O=C1N=C(N2CCOCC2)S/C1=C\c1cccnc1	18
COc1cc(C(C(=O)NCc2ccccc2)N(Cc2ccco2)C(=O)c2cnccn2)cc(OC)c1OC (stereo not drawn)	12
Cc1ccccc1CSc1nnc(-c2cnccn2)n1C	18
COc1ccccc1-c1nnc(SCC(=O)NC2CCS(=O)(=O)C2)n1CCc1ccccc1 (stereo not drawn)	6
COc1cccc(NC(=S)NNC(=O)Cn2nc(C(F)F)cc2C(F)F)c1	23
O=C(CS(=O)Cc1ccccc1Cl)Nc1ccccc1Cl (stereo not drawn)	11
CCC(C)NC(=O)C(Sc1ccccc1)c1ccccc1 (stereo not drawn)	17
O=C(O)c1ccc(Cl)c(S(=O)(=O)NCc2cccnc2)c1	12
N#Cc1nc(-c2ccco2)oc1NCc1ccccc1Cl	18
O=C(CC1C(=O)CCCC1=O)c1ccccc1	10
Cc1nn(-c2ccccc2)c(Cl)c1/C=N/NC(=O)c1ccc(NS(=O)(=O)c2cccs2)cc1	9
O=C(CN1CCN(c2ccc([N+](=O)[O-])cc2Cl)CC1)N1CCOCC1	28
O=C1CSC(c2ccc(Cl)cc2Cl)N1c1ccccn1 (stereo not drawn)	9
COc1ccc(/C=N/NC(=O)c2ccncc2)cc1CN1CCOCC1	15
Cc1cccc(NC(=O)CN2C(=S)NC(C)(C)CC2C)c1 (stereo not drawn)	10
CC(c1ccccc1)N1CCn2c(nc3cc(NS(C)(=O)=O)ccc32)C1 (stereo not drawn)	13
Cc1csc(NC(=O)c2ccc(C(=O)Nc3nc(C)cs3)cc2)n1	9
C(=N\Nc1nc(N2CCCC2)nc(N2CCCC2)n1)/c1cccnc1	-6
CCOC(=O)c1cnc2c(ccc3ccccc32)c1NCCO	18
COc1cc(C2c3sc(=O)[nH]c3SC3C(=O)N(c4ccc(C)cc4)C(=O)C32)ccc1O (stereo not drawn)	15
(next part)
SMILES	Biofilm kill mix
CCCCN(C(=O)c1ccc(NC(=O)C(C)C)cc1)c1ccccc1	27
CCOC(=O)C1CCN(C(=O)c2ccccc2N(C)S(=O)(=O)c2ccccc2)CC1	15
COc1ccc(NC(=S)Nc2cc(C)ccn2)c(OC)c1	-9
COC(=O)c1c(N2C(=O)[C@H]3[C@@H](C2=O)[C@]2(C(=O)Nc4ccc(C)cc42)N2CCC[C@@H]32)sc(C)c1C	17
Cc1ccc(Nc2nc(-c3ccc(C)cc3)c(CC(=O)O)s2)cc1	10
CCOc1ccc(C(C)NC(=O)C2CCC2)cc1 (stereo not drawn)	0
O=C(NNc1ccc([N+](=O)[O-])cc1[N+](=O)[O-])C1C2CCCCC21 (stereo not drawn)	1
O=C(Nc1cccc(S(=O)(=O)N2CCCCC2)c1)c1ccc2ncsc2c1	16
CCOc1ccc(OCC)c(S(=O)(=O)n2cc(C)nc2CC)c1	-7
O=C(/C=C/c1cccc(Br)c1)N1CCN(c2ccccn2)CC1	0
O=C(COC(=O)CCSc1ccc(Cl)cc1)NCc1ccccc1	6
Cc1nn(Cc2ccccc2)c(Cl)c1C(=O)OCC(=O)NC(=O)NC12CC3CC(CC(C3)C1)C2	21
Cc1ccc(-n2c(=O)c3c4c(sc3n3c(=S)[nH]nc23)CCC4)cc1	13
COc1ccccc1NC(=O)Cn1c(=O)c(N(C)C)c(N)n(C)c1=O	13
Cc1ccc(Sc2c(CO)c(-c3ccccc3)nn2C)cc1	-7
Cn1c(=O)[nH]c(=O)c2c1nc(N/N=C/c1ccncc1)n2Cc1ccc(Cl)cc1	15
COc1ccc(-n2c(Cc3ccccc3)nnc2SCc2ccc([N+](=O)[O-])cc2)cc1	1
COCCNC(=O)COc1ncnc2scc(-c3ccc(F)cc3)c12	16
CCN(CC)C(=O)c1ccc(S(=O)(=O)N2CCC(c3nc4ccccc4s3)CC2)cc1	11
COc1cccc(/C=N/N2CCN(C)CC2)c1	12
CC(NS(=O)(=O)c1ccc(Br)cc1)C(c1cccs1)N1CCOCC1 (stereo not drawn)	12
COc1ccccc1C(O)(C(=O)NNc1ccccc1C)c1ccccc1OC	12
COC(=O)c1ccccc1NC(=O)CSc1nnc(-c2ccc(OC)cc2)n1C	4
Cc1cc2c3c(c1)C(C)CC(C)(C)N3C(=O)C2=O (stereo not drawn)	22
N#CCCn1cc(C=O)c(-c2cccs2)n1	19

Entries listed so far that contain bromine, in the order listed:
SMILES	Biofilm kill mix
COc1ccc2c(c1)C(=O)[C@@H](O)[C@H](c1ccc(OC)c(Br)c1)O2	16
Cc1cc(N2C(=O)[C@@H]3[C@H](C2=O)[C@@H]2C[C@H]3C(Br)C2Br)no1 (stereo partly drawn)	15
N#C/C(=C\c1ccc(N2CCCCC2)o1)C(=O)Nc1cccc(Br)c1	12
O=C(/C=C/c1cccc(Br)c1)N1CCN(c2ccccn2)CC1	0
CC(NS(=O)(=O)c1ccc(Br)cc1)C(c1cccs1)N1CCOCC1 (stereo not drawn)	12

New compounds follow.
SMILES	Biofilm kill mix
COC(=O)c1ccc(CN2CCN(C(C)C)C(CCO)C2)cc1 (stereo not drawn)	4
Cc1ccc(/C(N)=N/OC(=O)c2ccc(Cl)cc2Cl)cc1	8
Cc1nc(-c2ccc(NC(=O)c3ccccc3Br)cc2)cs1	11
COc1ccc(C(=O)C[n+]2ccc3ccccc3c2C)cc1	19
c1ccc(Cn2c3ccccc3c3nnc(SCCN4CCCCC4)nc32)cc1	21
COc1cccc(/C=C2\SC(=S)N(c3cccnc3)C2=O)c1OC	16
CC(=O)c1cn(N(C)c2ncc(C(F)(F)F)cc2Cl)c(=O)[nH]c1=O	1
NC(=O)CSc1nnnn1CC(CC(=O)O)c1ccccc1 (stereo not drawn)	6
COc1ccccc1CN(Cc1nc2ccccc2c(=O)[nH]1)S(=O)(=O)c1ccc2ccccc2c1	11
CN(C)S(=O)(=O)c1cccc(NC(=O)NCCCl)c1	11
O=C(c1ccc2snnc2c1)N1CCCCC1	8
Cc1ccc(NC(=O)COc2cccc3ccc(C)nc23)c(Br)c1	11
Cc1ccc2c(c1)C1CN(C)CCC1N2C(=O)c1ccccc1NS(=O)(=O)c1ccc(F)cc1C (stereo not drawn)	12
CN1CCCC(OC(=O)c2cccc(Cl)c2)C1 (stereo not drawn)	14
CCOC(=O)/C(=N\Nc1cccc(C(F)(F)F)c1)N1CCOCC1	12
O=C(COc1cccnc1[N+](=O)[O-])Nc1ccc2c(c1)CCC2	24
CC(=O)Nc1ccc(-c2nnn(CC(=O)Nc3ccc4c(c3)OCO4)n2)cc1Cl	6
O=C(O)c1cccc(S(=O)(=O)N2Cc3ccccc3C2)c1	16
CC(=O)Nc1ccc(N=C(C2=C(O)c3ccccc3C2=O)c2ccccc2)cc1	5
NC(=O)CSc1ncc(-c2ccc([N+](=O)[O-])cc2)[nH]1	9
Cc1ccc(NC(=O)CN2CCC(NC(=O)C3CCCCC3)CC2)c(Br)c1	16
COc1ccc(CCNC(=O)C2CC(c3cccc(F)c3)=NO2)cc1 (stereo not drawn)	15
NNC(=O)c1cnn(-c2ccccc2)c1-n1cccc1	21
Cn1cnnc1SCc1ccc(C(=O)NN)cc1	11
COCCn1c(SCC(=O)NCc2ccco2)nnc1C(C)C	13
Remaining list, next part
SMILES	Biofilm kill mix
COc1ccc(CCN2C(=O)CC(C(N)=O)SC2=Nc2ccccc2)cc1 (stereo not drawn)	18
COC(=O)c1cc(C(=O)OCC(=O)N2c3ccccc3NC(=O)C2(C)C)cc([N+](=O)[O-])c1	7
CN(C)c1ccc(/C=N/NC(=O)c2ccc(CN3C(=O)c4cccc5cccc3c45)cc2)cc1	16
Nc1c(-c2n[nH]c(=S)n2-c2ccc(Cl)cc2Cl)cnn1-c1ccccc1	26
Cc1ccc(C(=O)COC(=O)CNC(=O)CN2C(=O)c3ccccc3C2=O)cc1	14
Cc1onc(-c2ccc(Cl)cc2)c1-c1ccnc(SCC(=O)Nc2cc(Cl)cc(Cl)c2)n1	20
CSc1cc(C)[nH]c(=O)n1	22
Cc1cccc(C)c1OCC(=O)N(Cc1ccc(N(C)C)cc1)C1CCS(=O)(=O)C1 (stereo not drawn)	20
CCc1cc2c(C)ccc(C)c2nc1SCC(=O)Nc1c(C)[nH]c(=O)[nH]c1=O	7
CC(C)OC(=O)C(C)Nc1ccc(F)c(Cl)c1 (stereo not drawn)	19
CC(C)n1cc([C@@H]2C[C@H]3CN(Cc4cccc(Cl)c4)C(=O)[C@]34CCCN24)cn1	7
COc1ccc(/C=C2\SC(=S)N(CC(=O)OCC(=O)Nc3cc(Cl)cc(Cl)c3)C2=O)cc1	32
COc1nc(C)nc2c1ccc1ccccc12	16
NS(=O)(=O)c1cc2c(cc1Cl)NC(C1C[C@H]3C=C[C@@H]1C3)NS2(=O)=O (stereo partly drawn)	5
O=C(N/N=C/c1ccc(-c2cccc([N+](=O)[O-])c2)o1)c1ccccc1O	4
COc1ccc(C(CC(=O)N2CCOCC2)c2c(OC)cc(OC)c3ccc(=O)oc23)cc1 (stereo not drawn)	11
CNC(=S)NCc1ccc2[nH]c(C)cc2c1	18
O=C(/C=C/Nc1ccc(F)cc1)c1ccc(Br)cc1	11
CN(C(=O)c1c[nH]c(=O)cc1C(F)(F)F)c1ccc(Cl)c(Cl)c1	15
CCOC(=O)C1=NN(c2ccc(Cl)cc2)C(c2ccccc2)CC1=O (stereo not drawn)	10
Cc1ccc(C(=O)N/C(=C\c2ccc(Cl)cc2)C(=O)NCCCN2CCOCC2)cc1	-11
O=C1/C(=C/c2cccnc2)SC(=S)N1Nc1ccccc1	14
CSc1ccccc1NC(=O)COc1ccc(Cl)cc1Cl	-7
CCN1CCN(C(=O)Nc2ccccc2OC)CC1	4
O=C(CCc1ccccc1)NC(=S)Nc1ccc(S(=O)(=O)N2CCOCC2)cc1	6
CCN(CC)S(=O)(=O)c1ccc(C)c(NC(=O)Cn2c(=O)cnc3ccccc32)c1	14
c1ccc(CCNc2nc(-c3ccccn3)nc3ccccc23)cc1	19
Cc1nc(C)c(/C(O)=C/c2nc3ccccc3oc2=O)s1	17
C=CCNC(=S)N1CCN(CCNC2=CC(=O)CC(C)(C)C2)CC1	10

Filtered by structure: the compounds so far containing a thiophene ring, fused or not
SMILES	Biofilm kill mix
Cc1sc(NC(=O)c2ccco2)c(C(c2ccc(F)cc2)N2CCN(C)CC2)c1C (stereo not drawn)	14
O=C(NN1CC(=O)N(c2cc(Cl)cc(Cl)c2)CC1=O)c1sccc1Cl	7
Cc1nn(-c2ccccc2)c(Cl)c1/C=N/NC(=O)c1ccc(NS(=O)(=O)c2cccs2)cc1	9
COC(=O)c1c(N2C(=O)[C@H]3[C@@H](C2=O)[C@]2(C(=O)Nc4ccc(C)cc42)N2CCC[C@@H]32)sc(C)c1C	17
Cc1ccc(-n2c(=O)c3c4c(sc3n3c(=S)[nH]nc23)CCC4)cc1	13
COCCNC(=O)COc1ncnc2scc(-c3ccc(F)cc3)c12	16
CC(NS(=O)(=O)c1ccc(Br)cc1)C(c1cccs1)N1CCOCC1 (stereo not drawn)	12
N#CCCn1cc(C=O)c(-c2cccs2)n1	19
